AF4-AF9 inh: blocks AF4 peptide binding to human AF9; AlphaScreen, biotin-AF4 peptide binding to FLAG-AF9; inhibition, % at 10 µM; actives 0.47% (n = 350,000);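 active = every replicate reaching a set inhibition limit, whatever the replicate mean, cut at about 25% in these data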;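 note: 0% = plate neutral control median and 100% = total signal loss; the record names both 10 and 1 µM as test concentration; the first replicate is given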
Target sequence (P42568 whole entry, looked up): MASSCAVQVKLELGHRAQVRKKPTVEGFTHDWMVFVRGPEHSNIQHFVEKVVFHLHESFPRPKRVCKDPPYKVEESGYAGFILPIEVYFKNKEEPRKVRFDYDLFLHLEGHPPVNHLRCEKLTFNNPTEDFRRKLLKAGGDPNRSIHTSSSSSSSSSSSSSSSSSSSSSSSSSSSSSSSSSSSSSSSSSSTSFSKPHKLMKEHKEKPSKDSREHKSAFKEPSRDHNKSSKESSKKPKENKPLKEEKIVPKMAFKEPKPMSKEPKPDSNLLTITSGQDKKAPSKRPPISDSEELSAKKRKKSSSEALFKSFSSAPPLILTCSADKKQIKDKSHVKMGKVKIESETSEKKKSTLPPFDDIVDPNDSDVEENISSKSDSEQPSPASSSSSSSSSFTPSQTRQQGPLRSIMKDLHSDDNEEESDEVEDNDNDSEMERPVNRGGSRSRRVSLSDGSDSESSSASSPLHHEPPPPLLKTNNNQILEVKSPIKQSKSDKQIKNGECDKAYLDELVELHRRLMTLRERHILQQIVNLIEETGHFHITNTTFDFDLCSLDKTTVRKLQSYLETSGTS
* = called active by the depositor; & = joins results of further samples. Only part of the results is shown, so the mix of outcomes need not match the whole.

nr	SMILES	AF4-AF9 inh
1	CC(C)(C)[S@](=O)N1Cc2cc(C(=O)NCc3ccccn3)nc(-c3cccc(-c4ccccc4F)c3)c2[C@@H]1CCO	3.3
2	Cc1ccc(S(=O)(=O)N(C)C[C@H]2Oc3c(NC(=O)c4nc5ccccc5s4)cccc3C(=O)N([C@@H](C)CO)C[C@@H]2C)cc1	-2.0
3	CN1CCN(C(=O)C[C@@H]2CC[C@@H](NC(=O)c3ccc4c(c3)OCO4)[C@H](CO)O2)CC1	3.1
4	CCN(Cc1ccncc1)C(=S)Nc1ccccc1C	-0.9
5	CNC[C@H]1Oc2c(NC(=O)Nc3ccc(F)cc3)cccc2C(=O)N([C@@H](C)CO)C[C@H]1C	-1.5
6	COc1ccccc1-c1ccc2c(c1)[C@H]1[C@H](CCN1S(=O)(=O)c1cn(C)cn1)[C@@H](CO)N2	3.3
7	COc1ccc(S(=O)(=O)N(C)C[C@H]2Oc3ccc(NC(=O)Nc4cccc5ccccc45)cc3CC(=O)N([C@H](C)CO)C[C@@H]2C)cc1	0.8
8	COc1ccc(S(=O)(=O)Nc2ccc3c(c2)C(=O)N([C@H](C)CO)C[C@H](C)[C@@H](CN(C)Cc2ccncc2)O3)cc1	-0.6
9	CC(C)=CCn1c2ccc(NC(=O)NCc3ccc(F)cc3)cc2c(=O)n1C	-0.7
10	CCC(=O)N(C)C[C@H]1Oc2ncc(C#Cc3ccc(OC)cc3)cc2C(=O)N([C@@H](C)CO)C[C@@H]1C	0.7
11	COc1ccc(OC(=O)N(C)C[C@H]2OCc3ccccc3-c3ccccc3C(=O)N([C@H](C)CO)C[C@H]2C)cc1	-2.6
12	Cc1cn(CC(=O)NCC(c2ccccc2)c2ccccc2)c(=O)[nH]c1=O	-5.0
13	C[C@@H](NC(=O)C[C@H]1C[C@H]2c3cc(NC(=O)c4cccnc4)ccc3O[C@H]2[C@H](CO)O1)c1ccccc1	-0.7
14	CC(C)NC(=O)N(C)C[C@@H]1OCCCC[C@@H](C)Oc2ccc(NC(=O)Nc3ccc(C(F)(F)F)cc3)cc2C(=O)N([C@@H](C)CO)C[C@@H]1C	2.8
15	COc1cccc(CN2[C@H](CO)[C@@H](c3ccccc3)C23CN(C(=O)C2CCCCC2)C3)c1	0.5
16	CCC(=O)N1CCC1(C)C(=O)Nc1cccc(OC)c1 (stereo not given)	-1.0
17	O=C(N[C@H]1CC[C@H](CC(=O)N2CCOCC2)O[C@H]1CO)c1ccccn1	-3.9
18	C[C@@H]1CN([C@H](C)CO)S(=O)(=O)c2ccc(Br)cc2O[C@@H]1CN(C)Cc1ccncc1	-0.6
19	Cc1ccccc1NP1(=O)OCCCN1Cc1ccccc1Cl (stereo not given)	0.7
20	CO[C@H]1CN(C)C(=O)c2cc(NC(=O)NC(C)C)ccc2OC[C@H](C)N(C)C[C@@H]1C	-0.6
21	Cc1ccc(S(=O)(=O)Nc2ccc3c(c2)CC(=O)N([C@H](C)CO)C[C@@H](C)[C@H](CN(C)C(=O)Nc2cccc4ccccc24)O3)cc1	-1.7
22	O=C(C[C@@H]1CC[C@@H]2[C@H](COC[C@H](O)CN2S(=O)(=O)c2cccc(Cl)c2)O1)NC1CCCC1	7.8
23	O=C(N[C@H]1CC[C@@H](CCn2cc(-c3ccc(F)cc3)nn2)O[C@@H]1CO)c1cnccn1	-0.4
24	CO[C@@H](CN(C)Cc1nccs1)[C@@H](C)CN([C@H](C)CO)S(=O)(=O)c1ccc(C)cc1	0.4
25	CC(=O)c1ccc(-c2ccccc2C2=CC(=O)CC(C)(C)C2=O)cc1	2.4
26	C[C@H]1CN([C@@H](C)CO)C(=O)c2cc(C3=CCCCC3)cnc2O[C@H]1CN(C)C(=O)C1CCOCC1	-6.0
27	O=C(Nc1ccc2c(c1)[C@H]1C[C@H](CC(=O)N3CCCCC3)O[C@@H](CO)[C@H]1O2)NC1CCCC1	9.2
28	CN1c2ccc(-c3ccccc3)cc2[C@H]2[C@H](CCN2C(=O)c2ccc3c(c2)OCO3)[C@H]1CO	9.1
29	CN(C)CC(=O)N[C@H]1C=C[C@@H](CC(=O)NCCN2CCCCC2)O[C@@H]1CO	1.8
30	C[C@@H]1CN([C@@H](C)CO)C(=O)c2cc(NC(=O)Cc3cn(C)c4ccccc34)ccc2O[C@H]1CN(C)Cc1ccc(C(=O)O)cc1	0.9
31	Cc1ccc(S(=O)(=O)Nc2ccc3c(c2)CC(=O)N([C@H](C)CO)C[C@@H](C)[C@@H](CN(C)C(=O)Nc2ccccc2)O3)cc1	-3.9
32	CC(C)NC(=O)N(C)C[C@@H]1Oc2ncc(C#CC3CC3)cc2C(=O)N([C@@H](C)CO)C[C@@H]1C	-2.2
33	N#C[C@H]1[C@H](c2ccc(C#Cc3ccc(F)cc3)cc2)[C@H](CO)N1C(=O)C1CC1	-1.3
34	CN1C(=O)c2cc(NC(=O)c3ccccc3Cl)ccc2OC[C@H]2O[C@@H](CC(=O)O)CC[C@@H]21	-4.9
35	COCc1cn(CC[C@@H]2CC[C@@H](NC(=O)c3ccncc3)[C@@H](CO)O2)nn1	-0.8
36	O=C(Cc1ccccn1)NCC[C@@H]1CC[C@@H](NC(=O)Nc2ccc(Cl)cc2)[C@H](CO)O1	-28.5

Sorted by SMILES length (lowest first): 3 of the compounds above.
nr	SMILES	AF4-AF9 inh
36	O=C(Cc1ccccn1)NCC[C@@H]1CC[C@@H](NC(=O)Nc2ccc(Cl)cc2)[C@H](CO)O1	-28.5
26	C[C@H]1CN([C@@H](C)CO)C(=O)c2cc(C3=CCCCC3)cnc2O[C@H]1CN(C)C(=O)C1CCOCC1	-6.0
27	O=C(Nc1ccc2c(c1)[C@H]1C[C@H](CC(=O)N3CCCCC3)O[C@@H](CO)[C@H]1O2)NC1CCCC1	9.2

Remaining list, next part
nr	SMILES	AF4-AF9 inh
37	Cc1noc(C)c1S(=O)(=O)Nc1cccc2c1O[C@H](CN(C)Cc1ccc(C(=O)O)cc1)[C@H](C)CN([C@@H](C)CO)C2=O	-2.3
38	CC1(C(=O)Nc2ccc3[nH]ncc3c2)CCN1C(=O)C/C=C/c1ccccc1 (stereo not given)	1.0
39	Cn1cnc(S(=O)(=O)N2CCCCN3[C@H](CO)[C@H](c4ccc(-c5ccc(F)cc5)cc4)[C@H]3C2)c1	1.3
40	C/C=C/c1ccc([C@H]2[C@@H](CN(C)S(C)(=O)=O)N(C(=O)CC)[C@H]2CO)cc1	0.7
41	C[C@@H]1CCCCO[C@@H](CN(C)C(=O)Nc2ccc3c(c2)OCO3)[C@@H](C)CN([C@H](C)CO)C(=O)c2cc(NC(=O)c3ccncc3)ccc2O1	-1.5
42	COc1cccc(NC(=O)N(C)C[C@@H]2Oc3cc(C#Cc4ccc(F)cc4)ccc3S(=O)(=O)N([C@@H](C)CO)C[C@H]2C)c1	-15.2
43	O=C(C[C@H]1C=C[C@@H](NC(=O)c2ccncc2)[C@H](CO)O1)NCC1CCCCC1	-0.4
44	CCCNC(=O)N1CC2(C1)CN(Cc1cccc(OC)c1)[C@@H](CO)c1[nH]c3cc(OC)ccc3c12	1.4
45	O=C(CN1CCOCC1)N[C@@H]1CC[C@H](CCn2cc(C3CCCCC3)nn2)O[C@@H]1CO	1.7
46	C[C@H](NC(=O)C[C@H]1C=C[C@@H](NC(=O)Nc2ccc3c(c2)OCO3)[C@H](CO)O1)c1ccccc1	-1.9
47	Cc1ccc(S(=O)(=O)N(C)C[C@@H]2OCCCC[C@@H](C)Oc3ccc(NC(=O)Nc4ccc5c(c4)OCO5)cc3C(=O)N([C@@H](C)CO)C[C@H]2C)cc1	1.9
48	NC(Cc1ccccc1)c1csc(Nc2nccc(C(F)(F)F)n2)n1 (stereo not given)	0.6
49	CO[C@H]1CN(C)C(=O)c2cc(NC(=O)Nc3c(C)noc3C)ccc2OC[C@@H](C)N(C)C[C@H]1C	-11.2
50	CCOC(=O)C1=CCN(S(=O)(=O)c2ccccc2Br)C1c1cccc(C)c1 (stereo not given)	-0.9
51	CCC(=O)Nc1ccc2c(c1)C(=O)N(C)[C@@H]1CC[C@H](CC(=O)NCc3ccc(OC)cc3)O[C@@H]1CO2	1.0
52	CCC(=O)N(C)C[C@H]1Oc2ncc(/C=C/c3ccccc3)cc2C(=O)N([C@H](C)CO)C[C@@H]1C	-1.6
53	O=C(Nc1ccc(F)cc1)N[C@H]1CC[C@@H](CCNS(=O)(=O)c2ccccc2F)O[C@@H]1CO	0.4
54	N#C[C@H]1[C@@H](c2ccc(C3=CCCC3)cc2)[C@@H](CO)N1C(=O)NC1CCCC1	-2.1
55	Cc1ccc(N(C)c2nc(N)nc(N)c2N=O)cc1	1.0
56	Cc1ccccc1-c1cnc2c(c1)C(=O)N([C@H](C)CO)C[C@H](C)[C@@H](CN(C)Cc1ccncc1)O2	-3.7
57	COc1ccccc1-c1cn(CC[C@H]2CC[C@@H](NC(=O)C3CCCC3)[C@H](CO)O2)nn1	-2.4
58	Cc1cccc(S(=O)(=O)N2C[C@@H]3N[C@H](C2)C3c2ccc(-c3cccc(C#N)c3)cc2)c1 (stereo not given in full)	-1.4&-3.5
59	CC(C)C[C@H]1COc2cc(N3CCOCC3)ccc2S(=O)(=O)N1	0.0
60	CC(C)NC(=O)N(C)C[C@@H]1Oc2ccc(NC(=O)CCN3CCOCC3)cc2CC(=O)N([C@H](C)CO)C[C@H]1C	-1.1
61	C[C@@H]1CN([C@H](C)CO)C(=O)c2cc(NC(=O)CCCN(C)C)ccc2O[C@@H](C)CCCCO[C@H]1CN(C)C(=O)CCCN(C)C	2.0
62	CO[C@H]1CN(C)C(=O)c2ccc(NS(C)(=O)=O)cc2OC[C@H](C)N(Cc2cccnc2)C[C@H]1C	0.7
63	C[C@H](CO)N1C[C@H](C)[C@@H](CN(C)Cc2ccncc2)Oc2ccc(NS(C)(=O)=O)cc2C1=O	-1.2
64	CN(CCc1ccccc1)C(=O)c1ccc(NC(=O)Cc2ccc(NC(=O)C3CCCN(C(=O)C4CCCC4)C3)cc2)cc1 (stereo not given)	0.1
65	O=C(c1cccc(F)c1)N1CC(=O)N2[C@H](C1)[C@@H](c1ccc(C#Cc3ccc(F)cc3)cc1)[C@@H]2CO	-4.5
66	COC(=O)c1cccc(CN2C(=O)C(C)Sc3ccc(C)cc32)c1 (stereo not given)	0.7
67	Cc1noc(C)c1S(=O)(=O)Nc1ccc2c(c1)CC(=O)N([C@@H](C)CO)C[C@@H](C)[C@@H](CN(C)Cc1ccc3c(c1)OCO3)O2	-17.8
68	CC(=O)Nc1ccc2c(c1)C(=O)N(C)[C@H]1CC[C@H](CC(=O)NCc3ccccc3Cl)O[C@H]1CO2	-1.1
69	Cc1ccc(-c2cnc3c(c2)C(=O)N([C@@H](C)CO)C[C@@H](C)[C@@H](CN(C)Cc2ccccc2F)O3)cc1	-9.7
70	COc1cccc(-c2cnc(C(O)c3ccc(Cl)c(F)c3)[nH]2)c1 (stereo not given)	8.4
71	C[C@@H]1CN([C@@H](C)CO)C(=O)Cc2cc(NS(=O)(=O)c3cccs3)ccc2O[C@H]1CN(C)CC1CCCCC1	9.2
72	CCC(=O)N[C@@H]1C=C[C@@H](CC(=O)NCC2CCCCC2)O[C@@H]1CO	1.0
73	CC(=O)NC(c1ccccc1)c1nc(-c2cc(F)cc(F)c2)cs1 (stereo not given)	-8.5
74	CCC(=O)N1[C@H](CO)[C@H](c2ccc(-c3cccc(F)c3)cc2)[C@@H]1CN(C)C(C)=O	-1.2
75	COc1ccc(Nc2c(-c3cc4ccccc4o3)nc3nc(C)cc(C)n23)cc1	4.0
76	CNC[C@H]1OCCCC[C@H](C)Oc2ccc(NS(=O)(=O)c3ccc(C)cc3)cc2C(=O)N([C@@H](C)CO)C[C@H]1C	0.5
77	C[C@H](CO)N1C[C@H](C)[C@H](CN(C)S(=O)(=O)c2cccs2)Oc2ccc(NS(=O)(=O)c3ccccc3)cc2CC1=O	-1.0
78	CCNC(=O)C[C@@H]1CC[C@H]2[C@@H](COc3ccc(NS(C)(=O)=O)cc3C(=O)N2C)O1	-3.4
79	C[C@@H]1CN([C@@H](C)CO)C(=O)c2cc(NC(=O)CCC(F)(F)F)ccc2O[C@@H](C)CCCCO[C@@H]1CN(C)Cc1ccc(C(F)(F)F)cc1	2.7
80	C/C=C/c1cnc2c(c1)C(=O)N([C@@H](C)CO)C[C@@H](C)[C@H](CN(C)C(=O)Nc1cccc(OC)c1)O2	-3.6
81	C[C@H](CO)N1C[C@H](C)[C@H](CN(C)CC2CCCCC2)Oc2c(NC(=O)C3CCCCC3)cccc2C1=O	-2.0
82	CCC(=O)N1C[C@@H](C)[C@H](OC)CN(C)C(=O)c2cc(NC(=O)Nc3ccc(Cl)cc3)ccc2OC[C@@H]1C	8.1
83	C[C@@H]1CN([C@H](C)CO)C(=O)c2cccc(NC(=O)c3nc4ccccc4s3)c2O[C@H]1CN(C)C(=O)Nc1ccc(F)cc1	-2.1
84	COc1cccc(NC(=O)N2CCc3nc(Nc4cc(Cl)cc(Cl)c4)ncc3C2)c1	2.2
85	COc1ccc2c3c([nH]c2c1)[C@@H](CO)N(C(=O)Nc1ccc(F)cc1)CC31CCN(C(=O)c2ccccn2)CC1	2.5
86	C[C@@H]1CN([C@H](C)CO)S(=O)(=O)c2ccc(C#Cc3ccc(F)cc3)cc2O[C@@H]1CN(C)C(=O)c1ccccn1	2.2
87	CC(C)NC(=O)N(C)C[C@H]1OCCCC[C@@H](C)Oc2ccc(NC(=O)Cc3ccccc3)cc2C(=O)N([C@@H](C)CO)C[C@H]1C	-0.3

Gathered by group: those above with an NH in an aromatic ring (5)
nr	SMILES	AF4-AF9 inh
12	Cc1cn(CC(=O)NCC(c2ccccc2)c2ccccc2)c(=O)[nH]c1=O	-5.0
38	CC1(C(=O)Nc2ccc3[nH]ncc3c2)CCN1C(=O)C/C=C/c1ccccc1 (stereo not given)	1.0
44	CCCNC(=O)N1CC2(C1)CN(Cc1cccc(OC)c1)[C@@H](CO)c1[nH]c3cc(OC)ccc3c12	1.4
70	COc1cccc(-c2cnc(C(O)c3ccc(Cl)c(F)c3)[nH]2)c1 (stereo not given)	8.4
85	COc1ccc2c3c([nH]c2c1)[C@@H](CO)N(C(=O)Nc1ccc(F)cc1)CC31CCN(C(=O)c2ccccn2)CC1	2.5

Source: PubChem BioAssay
